CapD inh: inhibitors of Bacillus anthracis CapD enzyme; purified CapD enzyme, fluorescence intensity read-out; hits give low values; some hits fall short of the stated cut; z-score (concentration not given with the values); 140,000 compounds, 0.23% hits; AID 492967;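 active = z-score under -4 in either of two replicates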;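 also: stock transfer was 100 nL into about 40 µL; score is relative to mean and spread of the plate; one replicate is shown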
AID504770: growth inhibitors of E. coli YBA685 in a screen for V. cholerae RctB (chromosome II replication) inhibitors; 130,000 compounds, 0.27% hits; E. coli YBA685 rctB-dependent plasmid, OD600 growth, 3 h; hits give low values; AID 504770; z-score (no concentration beside the values);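 active = z-score under -2 on both plates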;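 also: wells of about 30 µL received 100 nL stock; score is relative to mean and SD of the test wells; the first replicate is given; strong numbers were not always called active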
The depositor's hits bear a star; . = not tested or not shown; & = joins results of further samples.

SMILES	CapD inh	AID504770
Nc1nnc(SCC(=O)N2c3ccccc3Sc3ccc(C(F)(F)F)cc32)s1	-0.855	0.35
CC(C)(C)Sc1ccccc1CN1CCN(C(=O)OCc2cccc(SC(F)(F)F)c2)CC1	0.205	.
O=C(COC(=O)C1=NNC(=O)CC1)NCc1ccco1	.	0.8
Cn1c(=O)n(CC(=O)N2CCN(c3ccc([N+](=O)[O-])cc3)CC2)c(=O)c2ccccc21	-0.325	.
CCCCOc1nnc(-c2ccc(OC)cc2)c2ccccc12	-0.32	.
CCOC(=O)N1CCN(C(=O)CS(=O)Cc2nc(-c3cccc(C)c3)oc2C)CC1 (stereo unspecified)	-0.035	0
O=C(COc1ccc(Cl)cc1)NCCC12CC3CC(CC(C3)C1)C2	-0.41	0.05
COc1cc(/C=C/C(=O)N2CCC(C)CC2)ccc1OCc1c(C)noc1C	.	0.65
O=C(CSc1nnc(CCCN2C(=O)c3cccc4cccc(c34)C2=O)n1-c1ccccc1)NCCCO	55.6	.
CSc1nc2cc(NC(=O)c3cccs3)ccc2s1	0.17	1.8
O=C(Nc1ccc2ccccc2c1)/C(=C/c1ccc2c(c1)OCO2)NC(=O)c1ccccc1Br	1.57	.
Cc1ccc(NN)cc1	0.575	-1.6
CN1CCN(C(c2ccccn2)c2cc(Cl)c3cccnc3c2O)CC1 (stereo unspecified)	-8.05*	-0.55
CN(C)c1nc(N)nc(CSc2ccccn2)n1	0.325	-0.7
O=C(COC(=O)CCc1c[nH]c2ccccc12)Nc1ccccc1Cl	-0.71	-0.4
CCc1ccc(NC(=O)Cn2c(=O)n(CCc3ccccc3)c(=O)c3c4c(sc32)CCCC4)cc1	-0.73	0.5
Cc1noc(C)c1CSc1nnc(-c2ccc(F)cc2)c2ccccc12	.	-0.05
CN1CCN(C(=O)Cc2ccc(F)cc2)CC1	-0.25	-0.3
O=C(OCc1nc2c(oc3ccccc32)c(=O)[nH]1)C(O)(c1ccccc1)c1ccccc1	.	-0.1
Cc1nn(C)c(C)c1NC(=O)CNC(=O)Cc1cccc2ccccc12	.	0.65
Clc1cc(N2CCCC2)nc(N2CCCC2)n1	0.085	-0.05
Cc1cc(-c2ccccc2)[nH]c(=O)c1S(=O)(=O)Cc1ccc(Cl)cc1	-1.86	.
NS(=O)(=O)c1ccc(Cl)c(Cl)c1	-0.31	-0.1
O=C(CC1CC(=O)Oc2ccccc21)Nc1nccs1 (stereo unspecified)	0.26	0.7
CC(=O)SCCC(=O)N1CCn2c3c(c4cc(C)ccc42)CCCC31 (stereo unspecified)	.	-0.7
Carrying on.
SMILES	CapD inh	AID504770
Cn1c(-c2ccccc2)c[n+]2c1CCCCC2	0.6	-1.1
CCOc1ccc(/C=C/C(=O)Sc2ccc(Cl)cc2)cc1	1.05	1.3
CCOc1ccc2c(c1)N(C(=O)Cc1ccc(F)cc1)C(C)(C)C(=S)C2=C1SC(C(=O)OC)=C(C(=O)OC)S1	0.28	.
Clc1ccc(C2N[C@@H]3c4c(ccc5ccccc45)OC[C@@H]3CO2)cc1 (stereo partly specified)	-0.19	.
C/C(=N\N=C(/C)c1ccc(F)cc1)c1ccc(F)cc1	-0.58	.
O=C(c1ccccc1Cl)N1N=C(c2ccccc2)CC1c1nc2ccccc2[nH]1 (stereo unspecified)	-0.355	.
CCCNC(=O)CCc1nnc2ccc(N(CC)CC)nn12	-1.36	2.35
Cc1ccc2cccc(NC(=O)C(F)(F)F)c2n1	-0.515	-0.35
CCCCCCCCCCCCC(=O)OC1CCC2(C)C3CCC4(C)C(C(C)CCCC(C)C)CCC4C3CC(Br)C2(Br)C1 (stereo unspecified)	-0.515	.
COc1ccc(CNCC(O)(c2ccc(F)cc2)c2ccc(F)cc2)cc1	-0.78	.
N#Cc1nccnc1SCc1ccc(Cl)cc1Cl	-0.065	-0.1
CC(C)n1c(O)c(N=NC(=S)NC2CCCCC2)c2ccccc21	.	-2.85*
O=C1CC(c2ccccc2)CC(O)=C1C=NCCN1CCOCC1 (stereo unspecified)	1.61	0.4
CC(=O)Nc1ccc(N2C(=O)CSC2c2ccccc2)cc1 (stereo unspecified)	-0.185	-0.1
CCN(CC)C(=O)Oc1cc(C(F)(F)F)nc(-c2ccc(Cl)cc2)n1	-0.115	2.25
Cc1ccc(-c2nc(Cn3cc(C=C4C(=O)N(C)C(=O)N(C)C4=O)c4ccccc43)no2)cc1	-0.735	-0.35
CC(C)=CC(=O)Nc1nc2ccc(S(C)(=O)=O)cc2s1	1.45	-0.65
CCOC(=O)c1ccc(N2CC3CCCCN3C2c2ccccc2)cc1 (stereo unspecified)	0.79	.
COc1ccc(C(=O)NCCCc2nc3ccccc3n2C)cc1OC	-1.04	-0.6
CC(=O)c1c(C)nc(-c2sc3nc(-c4ccccc4)nc(N4CCCC4)c3c2C)nc1N	2.18	.
Nc1ccccc1S(=O)(=O)Nc1ccccc1	.	0.6
Cc1ccc(-c2csc(NC(=O)c3nc4ccccc4s3)n2)o1	-0.445	1.5
Cc1ccc(Sc2c(O)c3ccccc3oc2=O)cc1	1.73	-0.05
Cc1cc(=O)oc2cc(NC(=O)CC(CC(=O)O)c3ccccc3)ccc12 (stereo unspecified)	108	0.25
CCn1c(NN)nc2ccccc21	-0.05	0.45

A second format for 5 compounds above.
smiles,CapD inh,AID504770
CC(C)n1c(O)c(N=NC(=S)NC2CCCCC2)c2ccccc21,.,-2.85*
C/C(=N\N=C(/C)c1ccc(F)cc1)c1ccc(F)cc1,-0.58,.
CCOc1ccc(/C=C/C(=O)Sc2ccc(Cl)cc2)cc1,1.05,1.3
O=C1CC(c2ccccc2)CC(O)=C1C=NCCN1CCOCC1 (stereo unspecified),1.61,0.4
Cn1c(-c2ccccc2)c[n+]2c1CCCCC2,0.6,-1.1

Filtered by structure: the compounds so far containing an aryl methoxy group.
SMILES	CapD inh	AID504770
CCCCOc1nnc(-c2ccc(OC)cc2)c2ccccc12	-0.32	.
COc1cc(/C=C/C(=O)N2CCC(C)CC2)ccc1OCc1c(C)noc1C	.	0.65
COc1ccc(CNCC(O)(c2ccc(F)cc2)c2ccc(F)cc2)cc1	-0.78	.
COc1ccc(C(=O)NCCCc2nc3ccccc3n2C)cc1OC	-1.04	-0.6

(listing goes on)
SMILES	CapD inh	AID504770
CC1=C(C(=O)OCc2ccccc2)C(c2ccc[nH]2)C(C#N)=C(S)S1 (stereo unspecified)	-1.44	-0.5
Cc1ccc(N=C2NC(=O)/C(=C\c3cn(C)c4ccccc34)S2)c(C)c1	.	-0.8
COc1ccccc1N1CCN(S(=O)(=O)c2ccc3c4c(cccc24)C(=O)N3)CC1	37.7	-2.1
CN1CCC(OC(=O)c2ccco2)CC1	.	-1.2
CC1(C)Nc2ccccc2-c2c1sn(Cc1ccc(Cl)cc1)c2=S	4.84	.
CC1(C)Cc2c(ccc3ccccc23)CN1	.	0.85
COc1ccc(-c2cc3nc4n(c(=O)c3s2)CCCCC4)cc1	42.4	.
N#CCN(C(=O)CSc1nccn1-c1cccc(Cl)c1)c1ccccc1	.	-1.35
CCOC(=O)c1sc2nc(C)nc(NC3CCCCC3C)c2c1C (stereo unspecified)	1.21	.
Cc1[nH]n(-c2ccccc2)c(=O)c1C(c1ccccc1Cl)c1c(C)[nH]n(-c2ccccc2)c1=O	-0.045	.
O=S(=O)(c1ccc2oc(=S)n(CN3CCOCC3)c2c1)N1CCOCC1	.	-0.3
CC1CC2(CCCCC2)Nc2ccccc21 (stereo unspecified)	-0.025	1.65
CCN1CCN(CCCNC(=O)c2ccc3nc(/C=C(\O)c4ccc(OC)cc4)c(=O)[nH]c3c2)CC1	-0.94	2.85
CCOC(=O)c1c(S(=O)(=O)NC2CCN(C(=O)OCC)CC2)c(C)n(C)c1C	-2.21	0.95
Cc1ncc([N+](=O)[O-])n1CCNC(=O)N(Cc1cccc(Oc2ccc(Cl)cc2)c1)Cc1ccco1	-0.07	.
O=C(CN1C(=O)/C(=C/c2ccccc2)SC1=S)Nc1ccccc1	-0.535	-1.3
CCCNC(=O)N(C)c1ncnnc1NC	.	-0.4
O=C(O)c1ccc2c(c1)C(=O)N(NC(=O)c1ccc(O)cc1)C2=O	0.05	0.8
CCOC(=O)CNC(=O)c1sc2nc(C)nc(N3CCOCC3)c2c1C	2.08	.
COc1cc2c(cc1OC)C(c1ccccc1)N(C(=O)c1oc3ccccc3c1C)CC2 (stereo unspecified)	0.065	2.4
CN(CCCc1nc2ccccc2[nH]1)S(=O)(=O)c1ccc(Cl)cc1	-0.345	-1.05
CC(C)OC(=O)/C(C#N)=C/c1cn(C)c2ccccc12	.	1.25
c1ccc(-c2cn3ccsc3n2)cc1	-0.08&0.13	-0.4
COc1ccc(CCNC(=O)CSc2nc3ccccc3c(=O)n2CCc2ccc(S(N)(=O)=O)cc2)cc1OC	-0.945	.
CCn1c(SC)nnc1C1CCN(C(=O)NCc2ccccc2)CC1	.	2.2
Carrying on:
SMILES	CapD inh	AID504770
O=C(c1cccs1)C(O)NS(=O)(=O)c1ccccc1 (stereo unspecified)	-1.24	2.25
Cc1ccc(OCCOCCOc2ccccc2/C=N\n2cnnc2)cc1	1.75	1.25
O=C(O)CCC(=O)N1CCCC1	.	-1.35
Cc1ccc(C)c(Nc2nc3nonc3nc2N2CCCCC2)c1	0.06	.
O=C1CC(c2ccccc2C(F)(F)F)c2cc(Br)c3ccccc3c2N1 (stereo unspecified)	0.4	.
O=C(C/C=N\OCc1ccc(Cl)cc1Cl)Nc1ccc(Cl)cc1	-0.8	.
COc1ccc(S(=O)(=O)Nc2ccccn2)cc1OC	-0.375	1
COc1ccccc1NC(=O)Cc1ccccc1	0.195	-0.2
COc1cc(C2C3=C(CC(C)(C)CC3=O)OC3=C2C(=O)CC(C)(C)C3)ccc1OCC(=O)OCc1ccccc1	0.215	.
CCOc1cc(/C=C2\NC(=S)N(C3CCCCC3)C2=O)ccc1O	-1.96	1.55
N#CCC(=O)NCCN1CCOCC1	-0.265	0.15
COc1ccccc1NS(=O)(=O)c1cccc(C(=O)NN=C2CCCC2)c1	.	1.65
COc1cnc(-c2ccccc2)nc1Sc1ccc(Br)cc1	0.23	.
O=C(Nc1ccc2c(c1)OCCO2)c1cncc(-c2cccs2)c1	0.83	-1.3
CC(C)NC(=O)NC(c1ccccc1)c1ccccc1	.	-0.6
Cc1cccc(C(=O)NCCCn2ccnc2)c1C	.	1.5
CC1(C)Cc2cccc(C(=O)Nc3cccc4c3CCCC4)c2O1	59	-0.6
O=C(O/N=C(/c1ccc(F)cc1)C1CC1)c1sc2sccc2c1Cl	-0.115	.
CCOC(=O)CN1C(=O)C(C)(C)Oc2ccc(C(=O)NC(C)C)cc21	.	0
COc1ccc(Cl)cc1C(=O)Nc1ccc2nc3n(c(=O)c2c1)CCCC3	10.7	0.7
Fc1ccc(-c2nc3nc(-c4ccc(Cl)cc4Cl)cn3nc2-c2ccc(F)cc2)cc1	2.33	.
Cc1ccc(S(=O)(=O)N(CC(=O)Nc2c(C)n(C)n(-c3ccccc3)c2=O)c2ccccc2F)cc1	-0.365	.
COC(=O)c1sccc1S(=O)(=O)N1c2ccccc2NC(=O)CC1C (stereo unspecified)	0.25	-0.45
Cc1ccc(/C(=N\N(C)C)C(=O)C(F)(F)F)cc1	-1.2	.
CC1(C(=O)Nc2ccc3c(c2)OC2(CCCCC2)O3)CC1(Cl)Cl (stereo unspecified)	0.055	.
(next part)
SMILES	CapD inh	AID504770
C=CCn1c2ccccc2c2nnc(SCC(=O)Nc3nnc(C(C)C)s3)nc21	0.175	-0.5
Cc1cc(C)n(CCc2nc(-c3cccs3)cs2)n1	0.48	-0.1
CN(Cc1ccccc1)Cn1c(CO)nc2ccccc21	.	-0.35
CCOC(=O)c1cccc(N2C(=O)C3C4c5ccccc5C(c5ccccc54)C3C2=O)c1 (stereo unspecified)	0.065	.
CCS(=O)(=O)c1ccc(O)c(NC(=O)COc2ccccc2)c1	-0.77	-1.25
Cc1ccc(S(=O)(=O)NC(=O)N(c2ccc3c(c2)CCN3S(C)(=O)=O)C2CCN(Cc3ccccc3)CC2)cc1	-0.54	.
O=c1[nH]c(SC2Cc3ccccc3C2O)nc2c1cnn2-c1ccccc1 (stereo unspecified)	.	-0.45
CCOC(=O)C1=C(C)N=c2s/c(=C\c3c[nH]c4ccccc34)c(=O)n2C1c1ccc(OC)cc1OC (stereo unspecified)	0	.
Cc1cc2c3cccn3ccn2c1	.	0.9
COc1cc(/C=c2/sc3nc4ccccc4n3c2=O)ccc1OCc1ccccc1Cl	-0.37	.
Cc1cc(C)c2c(=O)[nH]n(C(C)C)c2n1	0.7	-0.1
O=C(CSc1nc2[nH]ncc2c(=O)n1-c1ccc(Br)cc1)Nc1ccc2c(c1)OCCO2	0.875	.
C=CCn1c(=N)n(CC(O)c2ccc(C)cc2)c2ccccc21 (stereo unspecified)	-0.015	-0.55
COc1ccc(C2CC(c3cccs3)=NN2C(=O)CSc2c[nH]c3ccccc23)cc1 (stereo unspecified)	-0.37	.
COc1cccc(NC(=O)CSc2nc3ccccc3c(=O)n2CC2CCC(C(=O)NCC3CCCO3)CC2)c1 (stereo unspecified)	-1.19	.
C1CCN(c2nc3nonc3nc2N2CCCC2)C1	-1.87	.
CC1CCCCC1NC(=O)CCS(=O)(=O)c1cccc2nonc12 (stereo unspecified)	-0.355	0.45
CCCc1cc(C(=O)Cc2ccc3c(c2)OCO3)c(O)cc1O	-0.705	-0.65

Four structures already listed, sorted by count of non-hydrogen atoms, lowest first.
SMILES	CapD inh	AID504770
Cc1cc(C)c2c(=O)[nH]n(C(C)C)c2n1	0.7	-0.1
Cc1cc(C)n(CCc2nc(-c3cccs3)cs2)n1	0.48	-0.1
COc1cc(/C=c2/sc3nc4ccccc4n3c2=O)ccc1OCc1ccccc1Cl	-0.37	.
CCOC(=O)c1cccc(N2C(=O)C3C4c5ccccc5C(c5ccccc54)C3C2=O)c1 (stereo unspecified)	0.065	.

An unsorted share of the library. About 0.39% of those tested had a hit in this group.
